# Autofluor counter: compound fluorescence in toxin protease inhibitor counterscreen; compound autofluorescence counterscreen, microsphere flow cytometry; stronger effect = higher value; fluorescence intensity (concentration not given with the values); 360,000 compounds, 3.1% hits;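 active = at least 3 SD above the mean of all compounds, about 16000 in these data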;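 also: 100 nL of 1 mM stock went into each well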
# * = called active by the depositor. Some of the compounds tested; rates above refer to the full screens.
SMILES,Autofluor counter
COc1ccc(-n2cnnc2SCC(=O)NC2CC2)cc1,3710
CCc1nc2c(OCCc3cccc(OC)c3)cccn2c1N(C)C(=O)c1ccc(C)cc1,3513
CC(=O)NC(c1cccc(F)c1)c1nc(-c2cnc3ccccc3c2)cs1 (stereo unspecified),3906
COCOCCn1cc(CN2CCS(=O)(=O)N(Cc3ccc(-c4cccc(N(C)C)c4)cc3)C(C(C)C)C2=O)nn1 (stereo unspecified),3642
CC(=O)Nc1ccc(NC(=O)C2Cc3c(-c4cccc(C(C)=O)c4)ccnc3O2)cc1 (stereo unspecified),3872
CC1C(=O)N(Cc2cn(Cc3ccco3)nn2)CCS(=O)(=O)N1Cc1ccc(-c2ccc(Cl)cc2)cc1 (stereo unspecified),3781
CC(C)Oc1cc(F)ccc1-c1cc(C(=O)NCCc2ccncc2)[nH]n1,3011
CCNC(=O)N(C)[C@H]1C[C@H]2c3[nH]c4ccccc4c3CCN2C[C@H]1[C@H](C)O,5598
COc1cc(CNc2ncnc3c2ncn3[C@H]2CN(Cc3ccc(F)cc3)C[C@@H](CO)O2)cc(OC)c1OC,2814
CCCCCCCCN1C(=O)[C@H](CC(=O)N2CCSCC2)C[C@@]2(C(=O)OCC)CCCC=C12,4430
CC1(C(=O)NS(=O)(=O)c2cccs2)CCN1C(=O)C1CCCCC1 (stereo unspecified),2836
Cc1cccc(C(O)c2ncc(-c3ccccc3Cl)[nH]2)c1C (stereo unspecified),4328

# The final seven entries of the section before come first, to join the parts:
SMILES,Autofluor counter
CC1C(=O)N(Cc2cn(Cc3ccco3)nn2)CCS(=O)(=O)N1Cc1ccc(-c2ccc(Cl)cc2)cc1 (stereo unspecified),3781
CC(C)Oc1cc(F)ccc1-c1cc(C(=O)NCCc2ccncc2)[nH]n1,3011
CCNC(=O)N(C)[C@H]1C[C@H]2c3[nH]c4ccccc4c3CCN2C[C@H]1[C@H](C)O,5598
COc1cc(CNc2ncnc3c2ncn3[C@H]2CN(Cc3ccc(F)cc3)C[C@@H](CO)O2)cc(OC)c1OC,2814
CCCCCCCCN1C(=O)[C@H](CC(=O)N2CCSCC2)C[C@@]2(C(=O)OCC)CCCC=C12,4430
CC1(C(=O)NS(=O)(=O)c2cccs2)CCN1C(=O)C1CCCCC1 (stereo unspecified),2836
Cc1cccc(C(O)c2ncc(-c3ccccc3Cl)[nH]2)c1C (stereo unspecified),4328
Cc1ccc(S(=O)(=O)N2CCCCC2)cc1NC(=O)CCNC(=O)c1ccccc1Cl,3398
COc1cccc(C(C)(O)c2nc(-c3cnc4ccccc4c3)cs2)c1 (stereo unspecified),2892
Cc1ccc(S(=O)(=O)N(CCCc2c(C)nc(N)[nH]c2=O)Cc2ccc([N+](=O)[O-])cc2)cc1,3468
COc1ccccc1-c1cncc(NC(C)=O)n1,2825
COc1cccc(-c2ccc3c(c2)O[C@@H](CN(C)Cc2cncnc2)[C@@H](C)CN([C@H](C)CO)S3(=O)=O)c1,3323
Cc1cc2[nH]c(=O)c(=O)[nH]c2cc1S(=O)(=O)NCC(C)c1ccccc1 (stereo unspecified),3898
Cc1nc(C(F)(F)F)ccc1C(=O)N1CCC1(C)C(=O)NS(=O)(=O)c1c(C)noc1C (stereo unspecified),3473
CC(C)NC(=O)C1(C)CCN1C(=O)c1ccc(F)c(Cl)c1 (stereo unspecified),4094
CCOc1ccc(Cl)cc1-c1cc(C(=O)NCc2ccccc2OC)[nH]n1,3709
CCOc1ccc(OCC(=O)Nc2cc(Cl)ccc2-n2cncn2)cc1,3900
O=C(NCc1cccnc1)c1cc(C2CCCN(S(=O)(=O)c3cccc4cccnc34)C2)on1 (stereo unspecified),3904
CC1(Cc2ccccc2Cl)C(=O)Nc2c(Cl)cccc21 (stereo unspecified),3740
O=C(CSc1nc2ccccc2c(=O)n1-c1ccc(F)cc1F)NC1CCS(=O)(=O)C1 (stereo unspecified),3525
COc1cccc(/C=C2\SC(=S)N(CCCC(=O)N3CCOCC3)C2=O)c1,3682
CCCC(=O)N1CCC1(C)C(=O)NS(=O)(=O)c1ccc(C(C)(C)C)cc1 (stereo unspecified),3763
CCCS(=O)(=O)NC(=O)C1(C)CCCN(C(=O)c2ccc(C(F)(F)F)cc2)C1 (stereo unspecified),3571
Cc1cc(C)c2c(=O)n3c(nc2c1)C(Cc1ccccc1)NC(=O)c1cccnc1-3 (stereo unspecified),3917
CSc1ncnc2c1ncn2CCCNCc1ccccn1,3595
C[C@H](CO)N1C[C@H](C)[C@@H](CN(C)C(=O)Oc2ccc3ccccc3c2)OCc2cnnn2CCCC1=O,3391
CCOC(=O)N(C)c1c(CC)nc2c(OCc3ccccc3C(=O)OC)cccn12,3537
CCCCCCCCN1C(=O)[C@H](CC(=O)NCCCC)C[C@@]2(C(=O)OCC)CCCC=C12,4460
CCN1CCN(c2ccc(NC(=O)CC3OC(=O)c4ccccc43)cc2C)CC1 (stereo unspecified),3092
C[C@H]1CNC(=O)c2c(C(=O)N[C@@H](Cc3c[nH]c4ccccc34)C(=O)OC(C)(C)C)ncn21,3040
Cc1cc(-c2nnn(CCCOC(C)(C)C)c2C)ccc1-c1cn(CCCOC(C)(C)C)nn1,3460
COCCNC(=O)C1CCCN(C(=O)c2ccc(SC(F)(F)F)cc2)CC1 (stereo unspecified),3819
CC1(C(=O)NS(=O)(=O)C2CC2)CCCN(C(=O)C2(c3ccc(Cl)cc3)CCCC2)C1 (stereo unspecified),3671
CCOC(=O)CNC(=O)N1Cc2cc(N3CCCCC3)ccc2-n2nncc2C1,6551
CC(C)c1cccc(-c2csc(C(C)(O)c3ccncc3)n2)c1 (stereo unspecified),3936
CC1CN=C(NS(=O)(=O)c2ccccc2)N1 (stereo unspecified),2935
CSCCC(c1nnnn1Cc1ccccc1)N1CCC(n2c(=O)[nH]c3ccccc32)CC1 (stereo unspecified),5994
CC1CCN(S(=O)(=O)N2CCC(C(=O)NC(C)c3ccccc3)CC2)CC1 (stereo unspecified),3883
COc1cc(O)c2c(c1)/C=C/C[C@H](O)[C@H](O)C(=O)CCC[C@H](C)OC2=O,5567
CCCN(C)C[C@@H]1OCCCC[C@@H](C)Oc2ccc(NC(=O)c3ccccc3)cc2C(=O)N([C@H](C)CO)C[C@@H]1C,4431
CCC(C)[C@H]1CNC(=O)C(=O)N1CC1CCCCC1 (stereo partly specified),5899
CCc1nc2c(OCc3ccc(OC)cc3)cccn2c1N(C)C(=O)c1ccc(OC)cc1,3593
CC(C)C1C(=O)N(Cc2cn(CC3CCCCC3)nn2)CCS(=O)(=O)N1Cc1ccc(-c2ccc(Cl)cc2)cc1 (stereo unspecified),3561
CC1(C(=O)Nc2cccc3cccnc23)CCN1Cc1cccc2c1OCO2 (stereo unspecified),3045
COc1cc(C=NNc2ccccc2[N+](=O)[O-])cc(OC)c1OC,2921
CN(Cc1ccccc1)C(=O)[C@@H]1CCCN1C(=O)[C@@H]1CCCN1C(=O)OC(C)(C)C,5538
COCCCn1cc(CN2CC(N3CCSCC3)CS2(=O)=O)nn1 (stereo unspecified),4046
O=C(NC(c1ccc(Cl)cc1)c1cccnc1)C1CCN(CCOc2ccc(Cl)cc2Cl)CC1 (stereo unspecified),2973
Cc1ccc(S(=O)(=O)NC(=O)C2(C)CCN2C(=O)Cc2ccc(-c3ccccc3)cc2)cc1 (stereo unspecified),3862
CCc1nc2ccc(C(=O)NCCN3CCOCC3)cn2c1N(C)Cc1ccc(OC)cc1,3658
Cn1nc(C(C)(C)C)cc1N1C(=O)CCC1(C)C(=O)Nc1ccc2ccccc2c1 (stereo unspecified),6115
O=C(NCc1cccs1)c1csc(COCCO)n1,3896
COC(=O)c1c(-c2ccccc2)oc2c1C(OCCO)CCC2 (stereo unspecified),5505
NNc1cc2c(nn1)CCN(C(=O)c1ccccc1)C2,3273
COc1cc2c(c(OC)c1OC)-c1ccc(NCc3ccccc3)c(=O)cc1C(NC(C)=O)CC2 (stereo unspecified),3531
CNc1cncc(-c2cccc(NS(C)(=O)=O)c2)n1,3910
CCc1nc2ccc(C(=O)N(C)CCCN(C)C)cn2c1N(C)Cc1cc2ccccc2s1,3199
O=C(O)c1cccc(-c2csc(C(O)c3ccc(F)c(F)c3)n2)c1 (stereo unspecified),3758
C[C@@H]1CN([C@H](C)CO)C(=O)CCCn2cc(nn2)CO[C@H]1CN(C)C(=O)Oc1cccc2ccccc12,3057
CC(=O)c1cccc(NC(=O)C2Cc3c(-c4ccccc4)ccnc3O2)c1 (stereo unspecified),3549
COc1cc(-c2ccc(N3C(c4ccsc4)=Cc4ccc(F)cc4C3c3c[nH]c4ccc(C#N)cc34)cc2)cc(OC)c1OC (stereo unspecified),5543
N#CCCN(Cc1cccnc1)CN1C(=O)c2ccccc2C1=O,2934
CNC(=O)C[C@H]1C(=O)N(c2ccc(Br)cc2)C[C@@H]1C,3573
C[C@@H]1CN([C@H](C)CO)C(=O)CCCn2cc(nn2)CO[C@H]1CN(C)S(=O)(=O)c1ccc2c(c1)OCCCO2,3896
Cc1ccc(S(=O)(=O)N2C[C@H]3[C@H]4C(=O)N(c5ccccc5)C(=O)[C@H]4CC(=O)[C@H]3[C@@H]2c2cccc3ccccc23)cc1,5506
Cc1c(P(=S)(c2ccccc2)c2ccccc2)[n+]2ccccc2n1C/C=C/c1ccccc1,3996
COc1cc(C(=S)N2CCOCC2)cc(OC)c1OC(=O)c1ccccc1Cl,3677

# The list goes on:
SMILES,Autofluor counter
C[C@H](CO)N1C[C@H](C)[C@@H](CN(C)S(=O)(=O)c2ccccc2F)Oc2ncc(Br)cc2C1=O,2919
CCCCn1nnnc1C(c1ccccc1)N1CCN(c2ncccc2C(F)(F)F)CC1 (stereo unspecified),4747
Nc1ccn([C@@H]2O[C@H](CNCC3=CCOc4ccc(O)cc43)[C@@H](O)[C@H]2O)c(=O)n1,3579
O=C(NCC(F)(F)F)c1ccc2sc([C@@H]3O[C@H](CO)[C@H](O)[C@H](O)[C@H]3O)nc2c1,2879
CC1(C(=O)NS(=O)(=O)c2cccc(OC(F)F)c2)CCN1C(=O)c1ccco1 (stereo unspecified),3915
CC1(C(=O)NCc2ccncc2)Cc2c(-c3cccc(C(F)(F)F)c3)ccnc2O1 (stereo unspecified),3347
Cc1cnc(C(=O)N(CCCn2ccnc2)C2C(=O)Nc3ccccc3N=C2c2ccccc2)cn1 (stereo unspecified),5112
CCNC(=O)C1CCCN(C(=O)C(c2ccccc2)c2ccccc2)CC1 (stereo unspecified),3742
CC(=O)N1CCc2cc(S(=O)(=O)C(C)CC(=O)NCc3ccco3)ccc21 (stereo unspecified),3626
CCn1c(SCC(=O)N2CCCCC2)nc2c([nH]c3ccccc32)c1=O,2914
Nc1ncnc2c1ncn2[C@@H]1O[C@H](C(=O)NCc2ccc3c(c2)OCO3)[C@@H](O)[C@H]1O,6395
CCOC(=O)C1(C)CCCCN1C(=O)c1ccccc1OC (stereo unspecified),3749
Cc1nn2c(=O)[nH]cnc2c1Cl,3591
O=C(Nc1ccc(Br)cc1F)c1nc[nH]c1C(=O)N1CCc2ccccc2C1,3034
CN[C@H]1C[C@H]2c3[nH]c4ccc(-c5cccc(C)c5)cc4c3CCN2C[C@H]1[C@H](C)O,3515
COC(=O)C[C@@H]1C[C@H]2c3cc(NC(=O)C4CCC4)ccc3O[C@H]2[C@@H](CO)O1,3135
C[C@@H]1CCCCO[C@H](CN(C)C(=O)c2ccncc2)[C@H](C)CN([C@@H](C)CO)C(=O)c2cc(NC(=O)c3ccccc3)ccc2O1,4115
Cc1cc(C)c2cc(C#N)c(NCCCN)nc2c1,5660
CCc1ccc2c(c1)NC(=O)C2(C)Cc1cccc(F)c1 (stereo unspecified),3625
O=C1OC(c2cccc3c(F)cccc23)c2ccccc21 (stereo unspecified),2899
CCOC(=O)[C@]12Cc3cc(OC)ccc3[C@H]1N(C1CCCCC1)C(=O)c1cc(OC)ccc12,5788
COc1ccc(CNC(=O)Nc2ccc3c(c2)c(=O)n(C)n3Cc2cc(C)cc(C)c2)cc1,2970
CC(=O)Nc1cc(-c2ccc(C(=O)N3CCOCC3)cc2)cn2c(-c3ccc(F)c(Cl)c3)cnc12,3710
Nc1cc(N)cc(C(=O)c2ccccc2)c1,5848

# 3 structures already listed, sorted by formula weight, smallest number first:
SMILES,Autofluor counter
Cc1nn2c(=O)[nH]cnc2c1Cl,3591
COC(=O)C[C@@H]1C[C@H]2c3cc(NC(=O)C4CCC4)ccc3O[C@H]2[C@@H](CO)O1,3135
COc1ccc(CNC(=O)Nc2ccc3c(c2)c(=O)n(C)n3Cc2cc(C)cc(C)c2)cc1,2970

# Next compounds follow.
SMILES,Autofluor counter
CCC(=O)N(c1nnc(SCC(=O)Nc2sccc2C(N)=O)s1)C1CC1,2842
COc1ccccc1-c1cnc2c(c1)C(=O)N([C@@H](C)CO)C[C@@H](C)[C@H](CN(C)C(=O)c1cccnc1)O2,3354
CN(Cc1ccccc1)C(c1cc2ccccc2o1)c1nnnn1C(C)(C)C (stereo unspecified),6361
COc1cc(OC)cc(-c2noc(-c3csc([C@H]4C[C@H](O)[C@@H](CO)O4)n3)n2)c1,4277
Cc1ccc(-c2nc3c4ccccc4ccn3c2Cc2ccsc2)cc1,6047
CCN(CC)CCN1CCN(c2cncc(-c3cccc(N)c3)n2)CC1,4236
CC1CC(C)CN(C(CCc2ccccc2)C(=O)NC2CCCCC2)C1 (stereo unspecified),5771
Nc1nc2ccc(Cl)cc2cc1C(=O)NC1CC1,6048
CCCS(=O)(=O)NC(=O)C1(C)CCN(C(=O)Cc2ccc3ccccc3c2)C1 (stereo unspecified),2899
COCCNC(=O)C1(C)CCCN(CC(=O)c2ccc(OC)cc2)C1 (stereo unspecified),3013
CCOC(=O)C1CCCN(C(=O)c2cc(OC)ccc2Br)CC1 (stereo unspecified),3839
COc1cc2c(cc1OC)C(c1ccc3c(c1)Cc1ccccc1-3)OC(=O)C2 (stereo unspecified),3483
COc1ccc(-c2ccccc2C2=CC(=O)CC(C)(C)C2=O)cc1,3662

# Some of the entries so far, as labelled records.
COc1cc(OC)cc(-c2noc(-c3csc([C@H]4C[C@H](O)[C@@H](CO)O4)n3)n2)c1
  Autofluor counter = 4277
Cc1ccc(-c2nc3c4ccccc4ccn3c2Cc2ccsc2)cc1
  Autofluor counter = 6047
